# HIV Env fusion – inhibitors of HIV Env-mediated cell fusion | HeLa-JRFL Env/CEM21 cell fusion, luciferase | inhibition, % at 12.3 µM | 360,000 compounds, 1.1% hits | AID 651610;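 active means mean replicate inhibition score of at least 50 and every replicate individually at or above 50; inconclusive means only one of the two criteria met; inactive means mean below 50 and not all replicates reaching 50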;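 further: 0% = plate neutral controls and 100% = maraviroc near 300 nM; one replicate is shown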
# MT1-MMP act inh – inhibitors of human MT1-MMP activation | P50281 | HT1080 RFP-PRO-GFP cells, GFP/RFP ratio fluorescence, overnight; percent of plate control window, DMSO zero | GFP/RFP ratio change, % at 20 µM | 360,000 compounds, 0.061% hits;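 active means GFP/RFP ratio change of at least 30% with cell ATP level not reduced by more than half and red fluorescence within 50% of control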; further: strong numbers were not always called active
#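 Test system: HT1080 RFP-PRO-GFP cells; Benchmarks: DMSO and RFP-L50D-GFP cell wells; Timing: cells overnight before dosing, compound overnight, 37 °C, 5% CO2; Compound: one 20 µM compound dose with 1% DMSO; Read-out: GFP/RFP fluorescence ratio.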
# PABP FP inh – blocks human PABP binding to poly(A) RNA. 290,000 compounds, 1% hits. inhibition, % at 35 µM. fluorescence polarization;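 active means 50% or more with normal probe brightness, or confirmed in later tests; inconclusive means above 50% with abnormal brightness, or retests that disagree; inactive means below 50% or failed in later tests; about a fifth of its hits are not listed in these tables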;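 further: calls also rest on retests at 20 µM and on dose response follow-up; controls were probe without protein and protein plus probe with vehicle; some compounds called inactive have numbers as strong as hits; many hits fall short of the cut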
# Target sequence (P11940 whole entry, looked up): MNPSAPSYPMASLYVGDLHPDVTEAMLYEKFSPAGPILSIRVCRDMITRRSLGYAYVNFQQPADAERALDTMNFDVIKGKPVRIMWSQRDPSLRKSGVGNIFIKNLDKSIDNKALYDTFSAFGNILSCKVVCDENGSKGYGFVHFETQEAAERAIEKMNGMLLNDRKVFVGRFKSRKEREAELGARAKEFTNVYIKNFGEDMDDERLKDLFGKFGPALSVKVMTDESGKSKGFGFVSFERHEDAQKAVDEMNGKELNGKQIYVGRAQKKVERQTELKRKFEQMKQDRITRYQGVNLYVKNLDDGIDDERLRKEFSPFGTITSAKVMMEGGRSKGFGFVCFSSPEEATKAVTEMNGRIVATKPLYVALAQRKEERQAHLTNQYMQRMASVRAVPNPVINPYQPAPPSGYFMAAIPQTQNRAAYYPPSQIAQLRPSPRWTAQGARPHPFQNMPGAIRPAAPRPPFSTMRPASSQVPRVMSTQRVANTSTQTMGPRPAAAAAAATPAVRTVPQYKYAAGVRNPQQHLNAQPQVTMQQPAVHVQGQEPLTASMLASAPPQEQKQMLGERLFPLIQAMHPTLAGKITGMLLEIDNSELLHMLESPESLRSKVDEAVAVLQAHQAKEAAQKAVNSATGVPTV
# UUG fidelity – alters start codon recognition fidelity in yeast; S. cerevisiae UUG-firefly luciferase reporter, luminescence/redox ratio; activity score, % at 18.7 µM; 350,000 compounds, 0.13% hits; AID 602363;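 active means replicate mean at a twofold rise or more, about +100% in these data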;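 further: firefly luciferase made from a UUG start codon reports start codon fidelity; reporter light over untreated wells divided by growth signal over untreated wells; some hits fall short of that in this replicate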
# CSC inhib – blocks cancer stem cells | cancer stem cell-like cells viability, luminescence | inhibition, % at 7.5 µM | 300,000 compounds, 1.1% hits;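 active means mean at 75% or more and at least half the replicates too; inconclusive means mean and replicates disagree; tested in HMLE shEcad cells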;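 further: 0% = median of negative and 100% = median of positive control wells; the first replicate is given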
# Rce1 inhib – inhibitors of yeast Ras-converting enzyme. yeast membranes, quenched prenylated peptide cleavage fluorescence. calls only. 290,000 compounds, 0.27% hits. AID 2563;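 active means fall in fluorescence gain of 50% or more versus controls, with final raw signal at or below 3038400; inconclusive means same 50% fall but final raw signal above 3038400; inactive means fall in fluorescence gain under 50%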;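 further: plate controls were neutral control wells for no effect and wells lacking membranes for full effect; tested at 10 µM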
# eIF4H FP inh – inhibitors of RNA binding by human eIF4H. AID 2012. inhibition, % at 35 µM. eIF4H fluorescence polarization binding assay. 290,000 compounds, 0.94% hits. Q15056;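 active means 50% or more with normal probe brightness, or confirmed in later tests; inconclusive means above 50% with abnormal brightness, or retests that disagree; inactive means below 50% or failed in later tests; about a fifth of its hits are not listed in these tables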;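 further: calls also rest on retests at 20 µM and on dose response follow-up; 0% = protein and probe with vehicle and 100% = probe without protein; strong numbers were not always called active; many hits fall short of the cut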
# eIF4H FP inh retest – also measured in eIF4H FP inh; calls as there; inhibition, %; compound at 20 µM; confirmation average;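 mean of two retest wells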
# PABP FP inh retest – recorded beside PABP FP inh, whose call it bears; inhibition, %; compound at 20 µM; confirmation repeats;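 mean of two retest wells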
# MT1-MMP act inh RFP – second read-out of MT1-MMP act inh, no call of its own (marks repeat the call); RFP signal change, %; measured here: RFP expression control read;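 0 = vehicle wells; hits needed this value within 50% of zero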
# Starred values were filed as active, the others as inactive; i = inactive; ? = inconclusive; nt = not tested or not shown; & = joins results of further samples.
SMILES,HIV Env fusion,MT1-MMP act inh,MT1-MMP act inh RFP,PABP FP inh,UUG fidelity,CSC inhib,Rce1 inhib,eIF4H FP inh,others
O=C(CN1c2cccc3cccc(c23)S1(=O)=O)NCc1ccc(Cl)cc1,nt,5,-1,nt,1,12,nt,nt,
COc1ccc2ccccc2c1CNCc1ccc(C)cc1,27,0,-8,-7,1,4,i,-4,
CCOCCCNC(=O)C(C)NS(=O)(=O)c1ccc(C)cc1 (stereo not given),-44,-3,2,0,-19,-7,i,1,
COCCN(C(=O)COC(=O)c1ccccc1Oc1ccccc1)c1c(N)n(Cc2ccccc2)c(=O)[nH]c1=O,-23,-7,-4,-4,-4,9,i,13,
COc1ccc(-c2cn3ccsc3n2)cc1,nt,0,-3,0,-42,-10,i,-3,
COc1ccc(NC(=O)N(C)C[C@@H]2OCc3cnnn3CCCC(=O)N([C@H](C)CO)C[C@@H]2C)cc1,10,4,7,nt,-6&-4,nt,nt,nt,
CSc1ccc(-c2cc(=O)c3ccccc3o2)cc1,nt,nt,nt,15,-2,-13,i,-6,
CC(=O)c1c2c3c(c(Br)ccc3n(C)c1=O)C(=O)c1ccccc1-2,-3,-19,8,nt,-18,-5,i,nt,
CC1Cc2ccccc2N1C(=O)c1ccc(N2CCCCC2)c([N+](=O)[O-])c1 (stereo not given),nt,11,-6,-6,-5,0,i,-3,
COc1cc(F)ccc1-c1csc(C(O)c2ccc(F)cc2)n1 (stereo not given),-11,-2,-2,nt,-1,nt,nt,nt,
CC(=O)c1c(COC(=O)c2cccnc2)nc2ccccc2[n+]1[O-],nt,-3,-6,64*,3,-6,i,5,eIF4H FP inh retest=15;PABP FP inh retest=94*
COc1ccc(OCC(=O)Nc2c3c(nn2-c2ccc(OC)cc2)CS(=O)(=O)C3)cc1,nt,-1,3,-10,-10,-3,i,-12,
COc1ccc(C(=O)N/N=C2\CCc3ccccc32)cc1OC,-2,0,3,5,nt,-8,i,-3,
CCN(CCO)c1nc(NCc2ccccc2)c2cnn(C)c2n1,11,-2,-7,-4,-1,58,i,-12,
CC(=O)c1cc(F)c(N2CCCC2)cc1C,nt,-2,-2,-2,-7,4,i,-4,
C=CCSC1=C(C#N)C2(CCCCC2)C(C#N)C(=O)N1 (stereo not given),-134,-2,2,-5,-4,-16,i,5,
COc1ccc(-n2c(C)cc(C(=O)Cn3c(NCCO)nc4ccccc43)c2C)cc1,2,-2,-7,10,4,0,i,-7,
CCOC(=O)c1c(NC(=O)c2ccccc2C(=O)O)sc2c1CCC2,9,-2,1,-3,-5,0,i,-2,
CC1CCN(CCCNC(=O)CCCNC(=O)Cn2cnc3sc4c(c3c2=O)CCCC4)CC1,-2,nt,nt,-16,-9,-8,i,-19,
CCC(=O)N1CCc2cc(S(=O)(=O)CCC(=O)Nc3ccc(C)cn3)ccc21,-12,-1,4,14,nt,-11,i,6,
CCOC(=O)CSc1nsc(SCC(=O)OCC)c1C#N,-95,4,0,6,5,-7,i,2,
Cc1cccc(OCC2=N/C(=C\N(C)C)C(=O)O2)c1,nt,5,4,10,-13,-3,i,-7,
Cc1cc([N+](=O)[O-])ccc1-c1ccc(/C=N/NC(=O)c2ccc(Br)o2)o1,0,0,2,?,6,88*,i,?,
Nc1n[nH]c(N)c1N=Nc1ccccc1F,4,7,1,1,-28,-7,i,-5,
CCOC(=O)NC1(Nc2ccc(C)cc2)Oc2ccccc2O1,15,3,-3,-2,-12,19,i,12,
Cc1ccnc(NC(=S)NC(=O)/C=C/c2ccc(Cl)cc2)c1,16,3,4,-4,nt,3,i,2,
O=C1NC(=O)/C(=C\c2ccccc2Oc2ccc(F)c(F)c2)S1,nt,-4,-14,0,-7,64,i,4,
O=S(=O)(Nc1nc2ccccc2nc1OCC(F)(F)F)c1cccs1,-20,-1,2,20,-25,-4,i,13,
CCN(CC)S(=O)(=O)c1cccc(NC(=O)C2SC(=Nc3ccc(C)cc3C)C(C(=O)NC(C)COC)=C2N)c1 (stereo not given),-78,-5,-8,5,-5,6,i,13,
Cc1cc(Cl)ccc1OCC(=O)OC(C)C(=O)NC(N)=O (stereo not given),-20,6,2,-6,-16,6,i,-7,
Cc1ccc(S(=O)(=O)N(C)C)cc1NC(=S)NC(C)CCCC(C)C (stereo not given),nt,-3,-12,-6,-33,17,i,6,
O=C(Cc1ccc2ccccc2c1)Nc1ccccc1Br,-49,-4,4,4,-1,-9,i,-5,
COCCn1c(=O)[nH]c2cc(C(=O)NCCCN3CCN(c4ccc(F)cc4)CC3)ccc2c1=O,19,3,1,8,-12,-16,i,-4,
CN(C)S(=O)(=O)c1ccc(C(=O)Nc2nnc(SCC(=O)N3CCOCC3)s2)cc1,-11,3,3,nt,-10,nt,nt,nt,
CCOc1ccccc1N(C(=O)c1snc(C(N)=O)c1N)C(CC)C(=O)NC1CCCC1 (stereo not given),3,-1,4,-4,-7,nt,i,2,
O=C(CSc1ncnc2c1cnn2-c1ccccc1Cl)N1CCN(C(=O)c2ccco2)CC1,nt,7,0,5,-12,24,i,6,
COc1ccc(Cl)cc1NC(=O)Cn1c(C)csc1=O,-1,-2,-2,nt,0,-13,nt,nt,
NC(c1ccccc1)c1csc(Nc2ccc(C(=O)NCCCO)cn2)n1 (stereo not given),7,2,6,nt,-4,nt,nt,nt,
CN(CC(=O)Nc1ccccc1Cl)C(=O)COC(=O)c1nc(Cl)c(Cl)c(Cl)c1Cl,nt,1,7,15,-2,30,i,18,
Clc1ccc(-c2ccc(CNCC3CCCO3)o2)cc1 (stereo not given),12,-2,-3,-8,2,3,i,0,
O=C(OC1CCOC1=O)c1cccc(S(=O)(=O)Nc2cccc(Cl)c2)c1 (stereo not given),nt,3,2,-3,nt,-7,i,4,
CCNC(=O)C(C)NC(=O)C1=NN(c2ccccc2)C(=O)CC1 (stereo not given),-15,-2,1,5,-9,-1,nt,11,
COc1cccc(/C=C2\Sc3ccc(C(=O)NCC4CCCO4)cc3N(C)C2=O)c1 (stereo not given),17,-6,-9,9,1,11,i,4,
CSc1ccccc1C(=O)NCCc1ccc(S(=O)(=O)N2CCCCC2)cc1,nt,1,-3,-7,-7,-8,i,-6,
CCN1CCN(Cc2cc(=O)oc3cc(C)cc(C)c23)CC1,-45,3,4,-17,-11,-7,i,5,
N#Cc1cnn(Cc2ccccc2)c1N,nt,-6,2,-6,-19,-14,i,-8,
COCCNC(=O)COC(=O)C1=Cc2ccccc2OC1,-15,2,2,8,6,-10,i,-4,
CCO[C@H]1OC(C(=O)N2CCCCCCC2)=C[C@@H](c2csc3ccccc23)[C@@H]1CCCO,15,1,-1,2,0,19,i,0,
CC(C)Cc1nnc(NC(=O)c2cccc(S(=O)(=O)N3CCN(C)CC3)c2)s1,3,1,-3,nt,-6,40,i,nt,
O=C(Cn1ncc2c(=O)oc3ccccc3c21)N1CCN(c2ccccn2)CC1,-28,4,1,-3,-2,nt,i,4,
CN(C)C(=O)N1CCC(C(=O)NCc2ccc(F)cc2Cl)CC1,nt,6,0,-2,2,-2,i,-12,
Cc1cc(C)c(C(=O)CSc2nnc(C)s2)c(C)c1,-1,2,-2,-8,-18,-15,i,-1,
Cc1cc(S(=O)(=O)Nc2ccc3c(c2)n(C)c(=O)n3C)ccc1F,2,1,0,4,nt,-15,i,3,
O=c1c2ccccc2c(-c2ccccc2)nn1Cc1ccccc1,11,-3,-1,6,nt,0,i,-8,
CCOCCCNC(=O)C1CCN(S(=O)(=O)c2ccc(C)cc2)CC1,-46,-2,4,-2,2,-6,i,2,
COc1ccccc1C(=O)Nc1ccc(C)cc1C(=O)c1ccccc1,-5,-6,-1,3,nt,8,i,-2,
CCc1nc2ccc(C(=O)Nc3ccc(OC)c(OC)c3)cn2c1N(CC)Cc1ccc(OC)c(OC)c1,14,3,1,nt,3,nt,nt,nt,
COCCNC(=O)c1c(N)sc2c1CCCC2,nt,nt,nt,16,nt,nt,i,8,
CCOCCCNCc1cc(Cl)cc(Cl)c1OCC,2,-5,-1,-14,nt,2,i,8,
COc1ccc(Cn2nnnc2CN(CCCN2CCOCC2)Cc2cc3cc(OC)ccc3[nH]c2=O)cc1,5,-9,-4,-12,nt,-5,i,-12,

# (listing goes on)
SMILES,HIV Env fusion,MT1-MMP act inh,MT1-MMP act inh RFP,PABP FP inh,UUG fidelity,CSC inhib,Rce1 inhib,eIF4H FP inh,others
COc1ccc(S(=O)(=O)Cc2ccccc2)cc1N,-72,1,-1,2,-4,-3,nt,3,
OCC1(Cc2cccc(C(F)(F)F)c2)CCN(Cc2cc3ccccc3o2)CC1,-64,0,-3,-8,nt,33,i,-3,
CCOC(=O)C1(CCOc2ccccc2)CCN(Cc2cccc(OC)c2O)CC1,11,3,-7,6,-11,30,i,0,
CCOC(=O)[C@H]1[C@H]2COc3ccc(Br)cc3[C@@H]2N2C(=O)CN(CC3CCCO3)C(=O)[C@@]12C (stereo not given in full),-7,1,6,nt,-9,-11,nt,nt,
COc1ccc2nc(SCC(=O)NN)cc(C)c2c1,-106,3,-4,0,-12,-7,i,-9,
CCOC(=O)c1nn(-c2ccc(F)cc2)c(=O)c2c(N)scc12,5,3,0,14,-8,-4,i,-3,
Cc1cnc(C(=O)OC(C)C(=O)NCc2ccccc2)cn1 (stereo not given),-16,5,1,nt,-1,-4,nt,nt,
N#Cc1cc2cc3c(cc2nc1SCC(=O)N1CCCC1)OCCO3,nt,0,1,5,-9,-6,i,-8,
CCOC(=O)c1cnc2c(-c3ccccc3)c(C)nn2c1N,-105,-7,3,3,-20,-14,i,-4,
O=C(Cn1cnc2cc([N+](=O)[O-])ccc2c1=O)Nc1cccc(S(=O)(=O)N2CCOCC2)c1,-7,-14,-7,10,nt,0,i,14,

# Entries listed so far containing an NH in an aromatic ring, in the order listed:
SMILES,HIV Env fusion,MT1-MMP act inh,MT1-MMP act inh RFP,PABP FP inh,UUG fidelity,CSC inhib,Rce1 inhib,eIF4H FP inh,others
COCCN(C(=O)COC(=O)c1ccccc1Oc1ccccc1)c1c(N)n(Cc2ccccc2)c(=O)[nH]c1=O,-23,-7,-4,-4,-4,9,i,13,
Nc1n[nH]c(N)c1N=Nc1ccccc1F,4,7,1,1,-28,-7,i,-5,
COCCn1c(=O)[nH]c2cc(C(=O)NCCCN3CCN(c4ccc(F)cc4)CC3)ccc2c1=O,19,3,1,8,-12,-16,i,-4,
COc1ccc(Cn2nnnc2CN(CCCN2CCOCC2)Cc2cc3cc(OC)ccc3[nH]c2=O)cc1,5,-9,-4,-12,nt,-5,i,-12,

# Four consecutive entries out of the list so far, quoted:
SMILES,HIV Env fusion,MT1-MMP act inh,MT1-MMP act inh RFP,PABP FP inh,UUG fidelity,CSC inhib,Rce1 inhib,eIF4H FP inh,others
COc1ccc2nc(SCC(=O)NN)cc(C)c2c1,-106,3,-4,0,-12,-7,i,-9,
CCOC(=O)c1nn(-c2ccc(F)cc2)c(=O)c2c(N)scc12,5,3,0,14,-8,-4,i,-3,
Cc1cnc(C(=O)OC(C)C(=O)NCc2ccccc2)cn1 (stereo not given),-16,5,1,nt,-1,-4,nt,nt,
N#Cc1cc2cc3c(cc2nc1SCC(=O)N1CCCC1)OCCO3,nt,0,1,5,-9,-6,i,-8,

# Bioassay records deposited in PubChem BioAssay by several laboratories.

# No enrichment for hits. About 2.9% of those tested had a hit in this group.
